Menin MLL FP FL = inhibitors of human menin-MLL interaction, wild-type MLL peptide; FP activity change, % at 61.4 µM; Fluorescence polarization, fluorescein-MLL peptide displacement from menin; 290,000 tested, under 10 active; inconclusive = falling polarisation curve, or a change in total fluorescence; inactive = total fluorescence flat and polarisation flat or rising; no compound was filed as active; the % refers to the polarisation; negative = inhibition;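 further: % of control where 0% means no effect; inhibitors lower the polarisation; unlabelled MLL peptide was the positive control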
gsp ag = activates gsp, the McCune-Albright syndrome mutation; gsp mutant cells, cAMP HTRF, 30 min; control for the full effect not named in the record; 340,000 tested, 0.13% active; Potency, µM (top dose mostly 76.9 µM), without a hit: top-dose activation (cAMP increase), usual class: activators; active = well fitted activation curve with a large enough effect; inconclusive = small, poorly fitted or top-dose-only effect, or another doubt; inactive = no such curve, though single readings can be large or run the other way; cell line not stated here;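 further: phosphodiesterase inhibitor Ro 20-1724 added with compounds to block cAMP breakdown; potency means the concentration at half of the fitted maximal effect; nearly all actives have a fitted effect of over 60% in size; about a fifth of the inactives were tested at one dose only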
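Cells stably selected in G418 were plated at 2000/well, grown 16-24 hr, then given compounds in DMSO with the PDE inhibitor […] (300 uM solution added) for 30 min at 37C; cAMP was read by HTRF.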
gsp antagonist = antagonists of gsp mutant (McCune-Albright syndrome); gsp-mutant cells, cAMP HTRF, 30 min; control for the full effect not named in the record; Potency, µM (doses to about 76.9 µM), for inactives: at the highest dose activity change, negative = inhibition, hits mostly inhibitors; 340,000 tested, 0.4% active; active = falling curve of any shape with a large fitted effect; inconclusive = falling curve, mostly with a smaller effect; inactive = flat or rising curve; cell line not stated here;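 further: intracellular cAMP measured with PDE inhibitor Ro 20-1724 present during compound exposure; potency means the concentration at half of the fitted maximal effect; on the % scale 0 is the no-effect control and ±100 the full control effect; nearly all actives have a fitted effect of over 65% in size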
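Cells, 2000/well, grown 16–24 h in DMEM 10% FBS with 0.5 mg/ml G418, then compounds plus […] (300 uM addition stock), 30 min at 37C. cAMP read by HTRF (cAMP-d2 and anti-cAMP antibody-K in lysis buffer) after 30 min RT.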
ClpP mod = qHTS Assay for Activators of ClpP | 340,000 tested, 1.9% active | Potency, µM (doses to about 57.5 µM), without a hit: at the highest dose activity change, negative = active | AID 651965, 2013 | purified B. subtilis ClpP, FRET peptide cleavage, 20 min | ATP-dependent Clp protease proteolytic subunit (Bacillus subtilis (strain 168)), P80244; active = well fitted falling curve with a large enough effect; inconclusive = small, poorly fitted or top-dose-only effect; inactive = no such curve, though single readings can be large or run the other way; further: potency means the concentration at half of the fitted maximal effect; the source files actives as falling curves though it sought activators and does not explain the sign; nearly all actives have a fitted effect of over 65% in size; many hits overshoot -100%
Target sequence (P80244 whole entry, looked up): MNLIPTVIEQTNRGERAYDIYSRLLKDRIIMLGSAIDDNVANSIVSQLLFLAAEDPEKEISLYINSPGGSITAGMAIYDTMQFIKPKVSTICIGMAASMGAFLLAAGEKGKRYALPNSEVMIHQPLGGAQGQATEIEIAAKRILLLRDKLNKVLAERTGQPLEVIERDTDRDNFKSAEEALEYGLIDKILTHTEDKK
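Buffer: 100 mM Tris/HCl pH8, 100 mM KCl, 0.05% low protease BSA, 2.5% glycerol, 0.01% Tween-20. ClpP 10 microg/mL final; 20 min RT; delta FRET normalized to ADEP and DMSO controls.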
TRPML1 inh = human mucolipin-1 channel inhibition; Q9GZU1; TRPML1-inducible cells, Ca2+ dye fluorescence, FDSS; stronger effect = lower value; inhibition of EC80 agonist-evoked calcium signal; activity change, negative = inhibition, % (test concentration not listed); 390,000 tested, 0.02% active; AID 624415; in the data active means activity change below about -50%; inconclusive means about -30% to -50%; inactive means above about -30%;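 further: stimulus is agonist 54-4 at its EC80 concentration; on the % scale 0 is the no-effect control and ±100 the full control effect; compound concentration not given in the record; the text of the record puts the active cut at -80%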
Target sequence (Q9GZU1 whole entry, looked up): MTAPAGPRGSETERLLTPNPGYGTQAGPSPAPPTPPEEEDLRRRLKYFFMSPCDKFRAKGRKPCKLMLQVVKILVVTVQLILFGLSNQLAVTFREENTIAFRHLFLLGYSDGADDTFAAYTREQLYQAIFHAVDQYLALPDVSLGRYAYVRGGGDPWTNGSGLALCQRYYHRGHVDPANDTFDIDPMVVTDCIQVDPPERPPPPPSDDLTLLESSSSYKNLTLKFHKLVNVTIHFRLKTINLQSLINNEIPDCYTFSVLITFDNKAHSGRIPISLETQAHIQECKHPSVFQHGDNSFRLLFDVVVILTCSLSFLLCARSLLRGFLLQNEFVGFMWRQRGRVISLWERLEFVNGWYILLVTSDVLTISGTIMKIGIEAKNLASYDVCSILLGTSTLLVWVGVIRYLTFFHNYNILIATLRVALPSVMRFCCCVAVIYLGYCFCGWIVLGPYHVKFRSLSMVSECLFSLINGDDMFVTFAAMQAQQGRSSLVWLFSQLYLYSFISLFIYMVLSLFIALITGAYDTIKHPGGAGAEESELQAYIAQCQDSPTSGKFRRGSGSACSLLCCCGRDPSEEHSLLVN
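Tet-induced TRPML1-DL cells loaded with Ca8 no-wash calcium dye were read kinetically on FDSS. Compound addition was followed by EC80 agonist 54-4 (4 uM final); inhibition was read over 110 s.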
TRPML1 ag = activates the human TRPML1 channel | Q9GZU1 | TRPML1-expressing cells, Ca2+ dye fluorescence, FDSS; host cell line not named in the record; reference of the full effect not given here | activation, % (concentration not given with the values) | 410,000 tested, 0.12% active; in the data active = activation above about 50%; inconclusive = about 30% to 50%; inactive = below about 30%; further: 0% is about no effect; the text of the record puts the active cut at 80%
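Calcium fluorescence on an FDSS kinetic reader gave the read-out. Tet-induced TRPML1-DL cells were plated overnight, dye-loaded (Ca8 with quencher, 45-90 min, room temperature, dark), then read 110 s after compound addition, and again 110 s after 4uM final 54-4 (EC80).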
Active calls of the source: *; [ ] = another dose, or the depositor's remark.

Screening CCc1ccc(-n2c(SCC(=O)Nc3cccc(S(=O)(=O)NC4=NCCCCC4)c3)nc3ccccc3c2=O)cc1 returned Menin MLL FP FL 3.6, gsp ag 3%, gsp antagonist 11%, ClpP mod -4.3%, TRPML1 inh 26 and TRPML1 ag 2.8.
CCOC(=O)c1ccccc1Nc1nc2ccc(C)cc2n2nnnc12 was read as ClpP mod -0.9%, TRPML1 inh -9 and TRPML1 ag 0.1.
`O=C(O)CCN1C(=O)/C(=C\c2cccc(OCC(=O)Nc3ccc(Cl)cc3)c2)SC1=S` gave Menin MLL FP FL 14, gsp ag 11%, gsp antagonist inconclusive and ClpP mod 0.3%.
For C/C(=N/NC(=O)CSc1nc2ccccc2s1)c1ccncc1 the results were Menin MLL FP FL 3.8, gsp ag 3%[15.4 µM], gsp antagonist -32%, ClpP mod -0.6%, TRPML1 inh -16 and TRPML1 ag 0.1.
For CCc1ccc(-c2csc(-c3c[nH]c4ccccc34)n2)cc1 the results were Menin MLL FP FL 5.1, gsp ag 35%, gsp antagonist 6%, ClpP mod inconclusive, TRPML1 inh 9 and TRPML1 ag -0.6.
For CCN1CCN(c2nc3ccccc3nc2C(C#N)C(=O)OC2CCCCC2)CC1 (centres undefined) the results were Menin MLL FP FL 3.9, gsp ag 9%, gsp antagonist -8%, ClpP mod -3.2%, TRPML1 inh 21 and TRPML1 ag 1.0.
Screening O=C1c2ccccc2C(=O)N1c1ccc(Cc2ccncc2)cc1 returned Menin MLL FP FL -2.1, gsp ag -26%, gsp antagonist -10%, TRPML1 inh 9 and TRPML1 ag 1.9.
Screening CC(=C\c1ccccc1)/C=C1/SC(=S)N(CCCC(=O)O)C1=O returned Menin MLL FP FL inconclusive, gsp ag -1%[15.4 µM], gsp antagonist inconclusive, ClpP mod -1.7%, TRPML1 inh 7 and TRPML1 ag -1.0.
CC(=O)Nc1ncc(Cc2cccc(Cl)c2)s1 was read as Menin MLL FP FL 0.0, gsp ag -5%, gsp antagonist 1%, TRPML1 inh 3 and TRPML1 ag -1.0.
`Cc1ccc(NC(=O)c2ccc(N(Cc3ccccc3)S(C)(=O)=O)cc2)cc1` gave ClpP mod -19%, TRPML1 inh -10 and TRPML1 ag 1.6.

Filtered by structure: the entries above with a halogen
`O=C(O)CCN1C(=O)/C(=C\c2cccc(OCC(=O)Nc3ccc(Cl)cc3)c2)SC1=S` gave Menin MLL FP FL 14, gsp ag 11%, gsp antagonist inconclusive and ClpP mod 0.3%.
CC(=O)Nc1ncc(Cc2cccc(Cl)c2)s1 was read as Menin MLL FP FL 0.0, gsp ag -5%, gsp antagonist 1%, TRPML1 inh 3 and TRPML1 ag -1.0.

Continuation.
For Cn1cnc([N+](=O)[O-])c1Sc1nc(N)nc2c1ncn2Cc1ccccc1 the results were gsp ag -39%[inhibitor], gsp antagonist 2%, ClpP mod 32µM*, TRPML1 inh -5 and TRPML1 ag 1.6.
Screening CC(O)c1nc2cc([N+](=O)[O-])ccc2n1Cc1ccccc1 (centres undefined) returned Menin MLL FP FL 0.6, gsp ag -22%, gsp antagonist -4%, ClpP mod 1.1%, TRPML1 inh 8 and TRPML1 ag -0.3.
Screening Cc1cc(C(=O)Nc2c(C)n(C)n(-c3ccccc3)c2=O)c(C)o1 returned Menin MLL FP FL 0.8, gsp ag 1%, gsp antagonist 18%, ClpP mod -0.7%, TRPML1 inh -4 and TRPML1 ag 0.6.
O=C1/C(=C/c2cccnc2)Oc2cc(OS(=O)(=O)c3ccccc3)ccc21 was read as Menin MLL FP FL 1.7, gsp ag -62%[inhibitor], gsp antagonist -18%, ClpP mod 0.2%, TRPML1 inh -15 and TRPML1 ag -0.1.
Screening CCc1ccc(NC(=O)CN2C(=O)c3ccccc3Sc3ccc(C(=O)N4CCCC4)cc32)cc1 returned ClpP mod -5.3%, TRPML1 inh 0 and TRPML1 ag 1.9.
`O=C(N/N=C/c1ccccn1)c1ccc(N/N=C/c2ccccn2)cc1` gave Menin MLL FP FL 0.4, gsp ag -38%[inhibitor], gsp antagonist 11%, ClpP mod -0.6%, TRPML1 inh 9 and TRPML1 ag -0.2.
CC(C)(C)c1ccc(OCC(=O)N2CCCCCC2)c(Br)c1 was read as Menin MLL FP FL -0.8, gsp ag 12%[15.4 µM], gsp antagonist 11%, TRPML1 inh 8 and TRPML1 ag 1.5.
`CCC1CCCCN1C(=O)Cn1c(=O)n(CCC(=O)NCc2ccco2)c(=O)c2sccc21` (centres undefined) gave Menin MLL FP FL -0.7, gsp ag -48%[inhibitor], gsp antagonist -5%, ClpP mod -2.7%, TRPML1 inh 0 and TRPML1 ag 0.4.
For Cc1cc(NC(=O)CSCC(=O)OCc2nnc(-c3ccc(F)cc3)o2)no1 the results were gsp ag -8%, gsp antagonist 0%, ClpP mod -2.5%, TRPML1 inh -17 and TRPML1 ag 2.1.
For CCCC(C(=O)NCC1CCCO1)N(C(=O)CNS(=O)(=O)c1ccccc1)c1ccc(F)cc1 (centres undefined) the results were Menin MLL FP FL -0.9, gsp ag 12%[15.4 µM], gsp antagonist 3%, ClpP mod -1.2%, TRPML1 inh -9 and TRPML1 ag -0.2.
Screening COc1ccc(OC)c(C2c3c(-c4ccc(Br)cc4)n[nH]c3C(=O)N2c2ccc(Cl)cc2)c1 (centres undefined) returned ClpP mod -11%, TRPML1 inh -10 and TRPML1 ag 1.5.
`Cc1ccc2c(CC(=O)Nc3ccc(S(=O)(=O)N4CCC(C)CC4)cc3)coc2c1` gave ClpP mod -2.9%, TRPML1 inh -23 and TRPML1 ag 0.5.
For CC(=O)c1ccc(-c2cccc(-c3nc4ccccn4c3NC3CCCCC3)c2)cc1 the results were gsp ag 15%, gsp antagonist inconclusive, ClpP mod -0.5%, TRPML1 inh 27 and TRPML1 ag 0.2.
`Cc1cccc(Cn2cnc3ccccc32)c1` gave Menin MLL FP FL -0.1, gsp ag 5%, gsp antagonist inconclusive, ClpP mod -2.5%, TRPML1 inh 3 and TRPML1 ag 0.9.
CCn1cc(C(=O)NCC(=O)NC(C)(C)CO)c(=O)c2cc3c(cc21)OCO3 was read as Menin MLL FP FL 2.6, gsp ag inconclusive, gsp antagonist 10%, TRPML1 inh 3 and TRPML1 ag -0.4.
For CNc1oc(-c2cccc3ccccc23)nc1C#N the results were Menin MLL FP FL -1.1, gsp ag 2%, gsp antagonist 3%, ClpP mod 16µM*, TRPML1 inh -19 and TRPML1 ag 2.2.
Screening CCc1noc(C)c1C(=O)Nc1cc(S(=O)(=O)N2CCOCC2)ccc1OCC(F)(F)F returned gsp ag -39%[15.4 µM], gsp antagonist -4%, TRPML1 inh 19 and TRPML1 ag 2.7.
Screening CC(=O)c1ccc(OC(=O)Oc2ccc(C(C)=O)cc2)cc1 returned gsp ag 9%, gsp antagonist 8%, ClpP mod 2.0%, TRPML1 inh 4 and TRPML1 ag -0.2.
For O=C(Cc1cc(=O)[nH]c(=O)[nH]1)NCc1ccc(Cl)cc1 the results were Menin MLL FP FL 0.8, gsp ag 27%, gsp antagonist 8%, ClpP mod -0.1%, TRPML1 inh -10 and TRPML1 ag -0.2.
CS/C(=N/S(=O)(=O)c1ccc(C)cc1)c1ccccc1 was read as Menin MLL FP FL 1.7, gsp ag -8%[15.4 µM], gsp antagonist 6%, ClpP mod -2.8%, TRPML1 inh 2 and TRPML1 ag 0.0.
For O=C1CC(N2CCN(c3ccc(F)cc3)CC2)C(=O)N1c1ccccc1 (centres undefined) the results were Menin MLL FP FL 0.3, gsp ag 3%[15.4 µM], TRPML1 inh -4 and TRPML1 ag 0.1.
Screening COc1ccc(-n2nc(C(=O)NCc3cc(OC)ccc3OC)c3c4ccccc4n(C)c3c2=O)cc1 returned Menin MLL FP FL -3.3, gsp ag -1%, gsp antagonist 18%, TRPML1 inh -2 and TRPML1 ag 0.2.
`CC(=O)c1c(C)[nH]c(C(=O)COC(=O)CCOc2ccc(C)cc2)c1C` gave gsp ag -105%[inhibitor], gsp antagonist -6%, ClpP mod -1.6%, TRPML1 inh -16 and TRPML1 ag -0.8.
Cc1nc2sccn2c(=O)c1Cl was read as Menin MLL FP FL 2.6, gsp ag 17%, gsp antagonist 2%, ClpP mod -5.3%, TRPML1 inh 13 and TRPML1 ag -0.2.
O=C(NCc1ccc(Cl)cc1)C(=O)NCC(c1ccco1)N1CCOCC1 (centres undefined) was read as Menin MLL FP FL 0.0, gsp ag inconclusive, gsp antagonist 10%, ClpP mod 0.9%, TRPML1 inh -15 and TRPML1 ag 0.4.
Screening CC(C)c1ccc(NC2CCCN(C(=O)c3ccoc3)C2)cc1 (centres undefined) returned Menin MLL FP FL 2.3, gsp ag 4%, gsp antagonist -4%, ClpP mod -2.3%, TRPML1 inh 1 and TRPML1 ag 0.3.
COc1ccc(-c2c(C#N)c(N)nc3c2CCCC3)cc1OC was read as gsp ag 31%, gsp antagonist -1%, ClpP mod -25%, TRPML1 inh -8 and TRPML1 ag 0.9.
COc1cc(CN(C(=O)COc2ccccc2Cl)c2ccccn2)cc(OC)c1OC was read as ClpP mod 1.1%, TRPML1 inh 38 and TRPML1 ag 0.0.
CC(C(=O)OCC(=O)Nc1ccc(S(N)(=O)=O)cc1)N1C(=O)c2ccccc2C1=O (centres undefined) was read as gsp ag -33%, gsp antagonist -1%, ClpP mod -1.8%, TRPML1 inh 6 and TRPML1 ag -0.4.
`Cn1c(/C=N/O)nc2ccccc21` gave Menin MLL FP FL 3.8, gsp ag inconclusive, gsp antagonist 8% and ClpP mod 3.8%.
COc1ccccc1N(C(=O)c1csnn1)C(C(=O)NC1CCCC1)c1ccccc1 (centres undefined) was read as Menin MLL FP FL 1.5, gsp ag -25%, gsp antagonist 2%, TRPML1 inh -11 and TRPML1 ag 1.4.
O=C(Cn1nc(Cc2ccncc2)c2ccccc2c1=O)N1CCN(C(=O)c2ccco2)CC1 was read as Menin MLL FP FL 1.2, gsp ag -3%, gsp antagonist -5%, ClpP mod -1.8%, TRPML1 inh -2 and TRPML1 ag 0.5.
`CCCC(c1nnnn1CC1CCCO1)N1CCN(c2cc(Cl)ccc2C)CC1` (centres undefined) gave Menin MLL FP FL -2.2, gsp ag 5%, gsp antagonist -14%, ClpP mod 2.7%, TRPML1 inh 5 and TRPML1 ag -0.6.
For Cc1ccnc(NC(=O)c2ccc(S(=O)(=O)c3ccccc3)cc2)c1 the results were Menin MLL FP FL 2.7, gsp ag -8%, gsp antagonist -18%, ClpP mod -0.9%, TRPML1 inh 1 and TRPML1 ag 0.9.
`O=C(OCCOCn1cc(Br)c(=O)[nH]c1=O)c1ccccc1` gave gsp ag -1%[15.4 µM], gsp antagonist -3%, TRPML1 inh 0 and TRPML1 ag 0.8.

Assay outcomes: PubChem, National Center for Advancing Translational Sciences (NCATS)

An unsorted share of the library. About 2.1% of those tested had a hit in this group.
